Vif TR-FRET: inhibitors of Vif binding to APOBEC3G peptide, primary screen, biochemical, TR-FRET, GST-Vif 1-94, biotin-A3G peptide, dose response retest (AID 1117319); inhibition, %; hits with a dose series show IC50 in µM; Virion infectivity factor (Human immunodeficiency virus type 1 group M subtype B (isolate …; TR-FRET GST-Vif / biotin-A3G peptide binding; higher % means a stronger effect; test concentration not given here; strong numbers were not always called active; 260,000 tested, 0.57% active;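 active = above the screen mean plus three standard deviations and confirmed in dose response; inconclusive = results disagree or hit not tested in dose response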;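 note: Vif residues 1-94 fused to GST binding biotinylated APOBEC3G peptide 110-148; 0% = full assay without inhibitor and 100% = GST in place of GST-Vif; retest series ran down from 100 µM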
RanGTP-Imp inh: inhibitors of RanGTP-importin-beta interaction, primary screen, biochemical, FRET, CFP-Ran, YFP-importin-beta, homogeneous. Ran GTPase (GTP-bound) - importin-beta complex. cell-free CFP-Ran/YFP-importin-beta FRET ratio. inhibition, % (test concentration not listed). 300,000 tested, 1.1% active. AID 2216, 2009;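 active = most replicates above 15%; inconclusive = exactly half above 15%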;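 note: 0% = DMSO wells and 100% = Ran loaded with GDP instead of GTP; wells of about 40 µL received 100 nL stock; the first replicate is given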
LANA-H2A inh: blockers of LANA interaction with H2A/H2B – biochemical, FP readout, HTS, primary screen. 320,000 tested, 0.6% active. cell-free LANA-H2A/H2B peptide, fluorescence polarization. Protein LANA1 (Human herpesvirus 8 type P (isolate GK18)), Q9QR71. inhibition, % (concentration not given with the values); in the data active = inhibition mostly above about 10%, no sharp cut-off; inactive = mostly below about 6.7%;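 note: stock transfer was 7.5 nL into about 10 µL; 0% = median of vehicle wells and 100% = median of positive control wells; one replicate is shown; the record names a cut of 25% in any replicate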
Target sequence (Q9QR71 whole entry, looked up): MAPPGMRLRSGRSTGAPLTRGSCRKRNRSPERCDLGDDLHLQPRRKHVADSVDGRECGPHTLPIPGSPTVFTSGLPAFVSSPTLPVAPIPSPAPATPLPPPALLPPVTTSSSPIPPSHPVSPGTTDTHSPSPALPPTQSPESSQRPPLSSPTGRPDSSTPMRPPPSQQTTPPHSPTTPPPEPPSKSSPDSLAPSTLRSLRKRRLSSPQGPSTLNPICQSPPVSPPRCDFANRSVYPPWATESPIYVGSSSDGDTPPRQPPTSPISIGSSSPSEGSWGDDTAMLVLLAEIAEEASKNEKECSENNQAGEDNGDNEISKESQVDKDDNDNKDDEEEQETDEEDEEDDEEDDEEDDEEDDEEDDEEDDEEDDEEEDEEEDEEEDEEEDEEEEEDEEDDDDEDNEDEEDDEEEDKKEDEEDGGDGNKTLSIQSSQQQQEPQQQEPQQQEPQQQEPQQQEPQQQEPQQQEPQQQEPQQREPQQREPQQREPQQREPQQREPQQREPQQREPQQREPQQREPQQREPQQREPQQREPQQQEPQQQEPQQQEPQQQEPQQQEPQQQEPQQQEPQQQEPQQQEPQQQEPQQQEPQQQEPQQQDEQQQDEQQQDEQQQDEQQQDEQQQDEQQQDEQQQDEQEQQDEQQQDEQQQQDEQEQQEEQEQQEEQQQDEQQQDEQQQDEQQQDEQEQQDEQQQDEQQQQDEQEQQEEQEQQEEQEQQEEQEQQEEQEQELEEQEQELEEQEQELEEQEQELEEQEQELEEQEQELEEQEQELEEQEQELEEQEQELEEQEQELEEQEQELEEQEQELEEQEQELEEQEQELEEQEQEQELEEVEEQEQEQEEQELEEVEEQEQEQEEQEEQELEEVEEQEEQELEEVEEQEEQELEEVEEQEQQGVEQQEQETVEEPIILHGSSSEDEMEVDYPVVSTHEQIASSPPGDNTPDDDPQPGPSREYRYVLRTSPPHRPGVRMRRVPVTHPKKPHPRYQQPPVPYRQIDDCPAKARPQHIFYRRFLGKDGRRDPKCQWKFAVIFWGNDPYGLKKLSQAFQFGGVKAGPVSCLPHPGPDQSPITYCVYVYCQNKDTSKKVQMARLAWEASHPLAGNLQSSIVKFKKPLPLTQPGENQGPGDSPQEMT
B2AR ag: beta2AR agonists driving receptor internalization, primary screen, cell-based, FAP fluorogen, flow cytometry; 340,000 tested, 0.43% active; Beta-2 adrenergic receptor (Homo sapiens), P07550; Am2.2-beta2AR cells; reference of the scale not given here; response, % (concentration not given with the values);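 active = response above a set limit, near 3 SD of response in nonfluorescent compounds, cut at about 42% in these data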;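 note: stock transfer was 100 nL into about 11 µL; a reference agonist was the positive control; negative values mostly stem from fluorescent compounds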
Calb FLC: C. albicans growth inhibition with fluconazole, primary screen, CaCi-2 strain, Alamar Blue fluorescence; growth inhibition, % (test concentration not listed); C. albicans CaCi-2 (fluconazole-resistant clinical isolate) + fluconazole, 48 h; AID 1979, 2009; 300,000 tested, 0.57% active;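 active = most replicates above 75%; inconclusive = exactly half above 75%; inactive = most below 75%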;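 note: all wells also contain fluconazole at 8 µg/ml as a sub-toxic cotreatment; 0% = median of DMSO wells and 100% = median of geldanamycin control wells; wells of about 8 µL received 7.5 nL stock; the first replicate is given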
HNF4A DNA FP: change in binding of human HNF4A to DNA, primary screen, biochemical, fluorescence polarization, FITC-DNA | Hepatocyte nuclear factor 4-alpha (Homo sapiens), P41235 | 1 h | activity change, % at 10 µM | 360,000 tested, 0.3% active; in the data active = activity change above about 30%, passing the limit was not always enough;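 note: controls were the assay level and a saturating level of protein; the project sought stronger binding though the title names inhibitors; some compounds called inactive have numbers as strong as hits; positive values seem to mean higher polarization but the record does not say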
ALR inh: inhibitors of human ALR sulfhydryl oxidase, primary screen, biochemical, H2O2 detection, HRP-luminol luminescence, single point; FAD-linked sulfhydryl oxidase ALR (Homo sapiens), P55789; purified ALR, DTT oxidation; inhibition, % (test concentration not listed); 290,000 tested, 3.8% active; AID 485317, 2010;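 active = mean and each replicate at 75% or more; inconclusive = only one of the two met; inactive = neither met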;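 note: stock transfer was 7.5 nL into about 7.5 µL; 0% = neutral wells and 100% = wells with inactivated enzyme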
An asterisk follows results filed as active; ? = inconclusive; / = not tested or not shown.

item	compound	Vif TR-FRET	RanGTP-Imp inh	LANA-H2A inh	B2AR ag	Calb FLC	HNF4A DNA FP	ALR inh
1	CN(C)c1ccc(/C=N/NC(=O)CN(c2cccc(Cl)c2)S(C)(=O)=O)cc1Br	-3%	-0.4	1.2	1	-4	-5.2	-5
2	OCCN(CCO)Cc1csc2ccccc12	/	-1.0	0.1	-4	-1	-1.5	9
3	Clc1ccc(-c2cnc(Oc3ccccc3)nc2)cc1	82%	5.0	/	-8	-4	-3.2	/
4	Cc1cccc(OCCC(=O)OCC(=O)N2CCc3ccccc32)c1	-1%	0.3	9.6	1	-1	-4.7	-5
5	CN(C)S(=O)(=O)N1CCN(c2cccc(Cl)c2)CC1	-2%	3.4	1.9	7	2	-5.7	-2
6	COC(=O)c1ccccc1N(C)S(=O)(=O)c1cc2c3c(c1)CCC(=O)N3CCC2	2%	2.0	-0.1	7	4	2.6	/
7	Cc1cc(NS(=O)(=O)c2ccc(NC(=O)c3cc4cc(Br)ccc4oc3=O)cc2)no1	-2%	-0.2	4.1	-4	5	-12	-7
8	O=C(NCC(F)(F)F)c1ccc(S(=O)(=O)Nc2ccccc2N2CCCC2)cc1	-6%	/	-14	4	/	27	-6
9	CCCC1=C(C(=O)OCC)C(/C=C/c2ccccc2)n2ncnc2N1 (centres undefined)	8%	-2.3	-1.5	-13	-3	0.5	-6
10	Cc1c(Br)c([N+](=O)[O-])nn1C(C)C(=O)NCc1cccs1 (centres undefined)	2%	-1.8	-0.1	-2	5	-5.8	-16
11	O=C(COC(=O)c1ccc(Cl)cc1)NC(=O)NC1CCCC1	0%	/	/	-2	/	2.2	/
12	Cc1ccccc1-c1nc(Cc2ccc(Cl)cc2)no1	0%	2.1	2.4	2	0	0.0	1
13	C[C@H](NC(=O)c1nc[nH]c1C(=O)NCC(=O)OCc1ccccc1)C(=O)OCc1ccccc1	/	-2.0	3.1	7	-9	1.9	-5
14	Cc1ccc(S[C@@H](CCN2CC[C@H](C(C)(C)C)CCC2=O)c2ccccc2)cc1	/	-1.6	0.4	11	-12	0.4	-13
15	COc1ccc(N(C(=O)c2cnsn2)C(C(=O)NC2CCCCC2)c2ccncc2)cc1 (centres undefined)	/	/	-3.9	0	-2	1.6	-8
16	COc1ccc2c(c1)c(C(=O)CN1CCC3(CC1)OCCO3)c(C)n2C	-4%	0.2	-1.5	-1	-17	0.1	-7
17	COc1ccc(/C=C/c2nc(S(=O)(=O)c3ccccc3)c(N(C)C)o2)cc1	-5%	2.4	4.2	6	-9	-0.3	9
18	COc1ccccc1N1CCN(C2CCN(C(=O)c3cccs3)CC2)CC1	27%	0.0	2.1	2	2	-1.4	3
19	CC1CCCN(C(=O)C2CCN(c3nc(-c4ccccc4)nc4c3CCC4)CC2)C1 (centres undefined)	?	0.9	-3.8	0	-10	20	3
20	CC1CCc2sc3ncnc(N4CCN(C)CC4)c3c2C1 (centres undefined)	/	-2.1	/	-10	-23	0.8	/
21	CCC(CC)NC(=O)c1cccc(Br)c1	-9%	1.2	-1.9	2	-4	-0.7	1
22	COC(=O)COc1ccc2oc(=O)cc(-c3cc4ccccc4o3)c2c1	/	0.8	-1.4	11	0	0.6	5
23	COC(=O)c1c(-c2ccc(C)cc2)csc1NC(=S)NC(=O)c1ccc(F)cc1	-8%	-0.4	-2.7	-5	-4	0.5	0
24	COC(=O)CC1C(C(=O)OC)ON2OC(C(=O)OC)C(C(=O)OC)C12 (centres undefined)	2%	?	-3.0	2	-1	-6.2	2
25	CN(C)c1ccc(/C=C2/C[N+](C)(C)C/C(=C/c3ccc(N(C)C)cc3)C2=O)cc1	-46%	/	/	-559	/	19	/
26	CCCCn1c(Cc2ccccc2)nnc1SCC(=O)Nc1cc(C)on1	8%	-1.0	-0.1	-2	-5	2.3	/
27	CN(C)c1ccc(/C=N/NC(=S)NCc2ccccc2)cc1	6%	?	2.4	-15	-17	-0.8	12
28	COCCn1c(C(C)C)nc2sc3ccccc3c(=O)c2c1=O	3%	-3.6	3.2	-4	13	-2.5	-1
29	CSc1nnc(C)c(=O)n1COC(=O)COc1ccccc1	/	11	-4.5	-2	3	2.1	0
30	CSc1nsc(SC)c1CO	/	-1.5	-4.3	-2	-15	-1.8	2
31	CCOC(=O)c1ccc(NC(=O)c2c(N)n(Cc3ccccc3)c(=O)[nH]c2=O)cc1	/	-1.8	3.6	3	-5	5.3	-1
32	CC(C)c1nc2c(c(=O)c3ccccc3n2C)c(=O)n1-c1ccc(F)cc1	-100%	-3.5	0.0	-8	0	-0.9	-12
33	c1ccc(OCc2nc3ccccc3s2)cc1	0%	7.1	-2.5	-2	0	-5.0	-1
34	CCCCOC(=O)Cn1cnc2ccc(Br)cc2c1=O	14%	?	0.1	-4	-1	-1.8	44
35	O=C(CSc1nc2sc3c(c2c(=O)[nH]1)CCC3)NCCO	-6%	1.5	2.2	-4	-2	1.4	-14
36	O=C(NC1CC1)c1ccc(COc2ccc(F)cc2)o1	4%	7.7	4.5	-1	1	-0.5	/
37	S=C1NCN(C2CCCCC2)CN1c1ccccc1	9%	5.6	3.4	-2	-9	1.9	-7
38	COc1ccc(CN2CCN(CCCc3ccccc3)C(CCO)C2)c(OC)c1 (centres undefined)	/	?	1.4	4	-14	-3.5	-1
39	CCOC(=O)c1nc(Nc2cccc(C)c2)c2ccccc2n1	-4%	-2.7	6.9	10	2	-1.3	-7
40	O=C(O)Cn1nc(-c2ccccc2)ccc1=O	0%	-3.1	1.0	-4	-11	5.5	-17
41	COC(=O)c1ccccc1CON1C(=O)C(C)(C)N(OCc2ccccc2C(=O)OC)C(=O)C1(C)C	20%	-0.3	2.0	7	18	0.2	-3
42	O=C(Nc1cccc([N+](=O)[O-])c1)C1CCN(C(=O)Cc2ccccc2)CC1	/	-0.2	-3.8	14	-2	-3.4	-4
43	COc1ccc(OCC(=O)NNC(=O)C2CCN(c3ncnc4sc(C)c(C)c34)CC2)cc1	-6%	/	-8.9	6	/	2.9	2
44	CCc1ccccc1N(CC(=O)NC(C)C)C(=O)CCC(=O)Nc1nccs1	/	-3.7	0.8	-5	-2	-2.2	4
45	CCOC(=O)[C@H]1[C@H]2COc3ccc(Cl)cc3[C@@H]2N2C(=O)c3ccccc3NC(=O)[C@@]12C	/	/	0.3	0	/	6.0	/
46	CCOC(=O)CNC(=O)N1CCC(CCOc2ccccc2)(C(=O)OCC)CC1	-5%	4.3	-4.5	3	1	1.8	/
47	CCC1CCC2(CC1)NC(=O)N(CC(=O)Nc1ccc(OC)c(Cl)c1)C2=O (centres undefined)	>100µM*	/	7.2	4	/	-2.3	-1
48	Cc1ccn2cc(CNS(=O)(=O)c3ccc(Cl)s3)nc2c1	>100µM*	5.7	0.5	1	5	3.2	7
49	Cc1oc(C(=O)O)cc1CSCc1ccoc1C(=O)O	7%	-1.1	-3.2	4	-6	-5.0	12
50	COc1ccc(OCCC(=O)OCC(=O)Nc2cccc(S(=O)(=O)N3CCOCC3)c2)cc1	-4%	-2.6	1.3	-4	1	-1.9	2
51	O=C(COc1ccc(Cl)cc1)NCCC1=CCCCC1	11%	3.8	-1.9	2	-1	-0.4	-4
52	O=C(CSc1nnc(NC(=O)C2CC(=O)N(c3ccc(F)cc3)C2)s1)NCc1ccco1 (centres undefined)	9%	?	-0.4	-1	0	-3.2	17
53	COc1ccccc1C1SCCN1S(=O)(=O)c1cccc(C(F)(F)F)c1 (centres undefined)	?	-0.9	2.7	4	4	3.2	-18
54	COCCn1c(=NC(=O)c2ccc(S(=O)(=O)N3CCOCC3)cc2)sc2cc(S(N)(=O)=O)ccc21	-3%	1.5	-9.4	6	-1	-2.9	3
55	Cc1ccsc1C(=O)OC(C)C(=O)NC1CCCCC1C (centres undefined)	4%	/	/	-12	/	-0.1	/
56	OCCSc1c(F)c(SCCO)c(SCCO)c(F)c1SCCO	24%	-2.0	-1.0	-1	6	1.1	-3
57	CC(C)OC(=O)CSc1nnc(-c2ccc(C(C)(C)C)cc2)n1N	1%	-1.6	-2.8	15	11	2.8	/
58	CC1CCN(C(=O)CNC(=O)c2cccc(OC(F)F)c2)CC1	2%	0.8	0.0	7	-14	0.7	0
59	Cc1nc(N2CCOCC2)c(C#N)c(C)c1Br	-3%	-5.8	-0.5	-6	-9	0.7	-2
60	COc1ccccc1CCNC(=O)c1ccc(OC)c(OC2CCN(C(C)C)CC2)c1	/	-2.6	-0.2	-2	2	-2.7	-2

Other results follow:
item	compound	Vif TR-FRET	RanGTP-Imp inh	LANA-H2A inh	B2AR ag	Calb FLC	HNF4A DNA FP	ALR inh
61	CC1CCCC(NC(=O)COC(=O)CCC(=O)c2ccc(F)cc2)C1C (centres undefined)	-8%	/	1.2	-1	/	-0.6	-3
62	CCN1CCC(n2nccc2NC(=O)c2ccccc2Cl)CC1	-1%	2.7	8.5	1	-6	-1.0	-12
63	Brc1cccc(OCCN2CCCCC2)c1	-2%	-1.2	2.8	-5	-15	2.9	-53
64	Cc1nn(C)c(C)c1S(=O)(=O)NC1CCCC1	7%	-0.2	-0.8	5	-11	0.1	-2
65	C=CCNC(=O)c1csc(-c2ccccc2)n1	0%	-2.6	-0.8	-4	-9	-0.4	-8
66	O=C(c1cc2nc(-c3ccc(F)cc3)cc(C(F)(F)F)n2n1)N1CCOCC1	-1%	/	-1.8	4	5	1.6	4
67	CC(C)c1ccc(S(=O)(=O)N2CCN(CC(=O)Nc3ccc4c(c3)OCO4)CC2)cc1	3%	/	-1.2	-22	/	-3.4	-11
68	CN1C(=O)c2ccc(C(=O)Nc3nccs3)cc2C1=O	/	1.0	3.7	-5	3	0.6	7
69	O=C(CS(=O)(=O)c1ccc(Cl)c(Cl)c1)Nc1ccccc1Cl	1%	3.5	3.2	6	-1	2.4	1
70	Cc1ccc(C(=O)NCCCN2CCOCC2)cc1S(=O)(=O)N1CCCCC1	-4%	/	/	2	/	-3.8	/
71	CC(C)=N/N=C(/c1ccc([N+](=O)[O-])cc1)C12CN3CN(CN(C3)C1)C2	?	-2.2	1.1	-8	2	10	-2
72	CC(C)C1Nc2ccc(C(=O)NC3CCCCC3)cc2NC1=O (centres undefined)	/	-1.7	-6.9	-9	-3	-3.2	3
73	CCC(=O)Nc1ccc(C(=O)NNC(=O)C2CCCCC2)cc1	/	/	7.2	-2	-6	-3.6	-7
74	COc1cccc(S(=O)(=O)NCc2ccc(C(=O)N3CCN(c4ccccc4OC)CC3)cc2)c1	1%	4.3	-7.8	-4	20	3.3	-4
75	CC(c1ccccc1)C1CC(=O)N(c2ccccc2)C1=O (centres undefined)	1%	2.7	-4.1	-5	44	-1.1	-2
76	O=C1C=CC(=O)N1c1ccc(O)cc1	/	-2.9	-1.4	8	-6	6.3	1
77	O=C(NCCNc1ccnc2cc(Cl)ccc12)c1ccccc1F	2%	-0.4	2.0	-3	3	3.5	-1
78	COc1ccc(/C=N\NS(=O)(=O)c2ccc(Br)cc2)cc1COc1ccccc1[N+](=O)[O-]	?	-3.4	-0.2	12	3	-0.1	-3
79	O=C(c1cccc(Br)c1)N1CCCc2ccccc21	5%	-0.7	-16	1	8	-2.3	4
80	O=C(Nc1cnccn1)c1ccc(F)cc1Cl	/	-2.2	-4.2	8	-1	1.5	-3
81	Cc1cccc2cc3c(NC(=O)C(C)(C)C)nn(CC(C)C)c3nc12	-3%	80*	-1.8	4	-2	-2.8	-5

Source: PubChem BioAssay (several laboratories)
